Autofluor counter = compound fluorescence in toxin protease inhibitor counterscreen; compound autofluorescence counterscreen, microsphere flow cytometry; active compounds read high; fluorescence intensity (concentration not given with the values); 360,000 tested, 3.1% active;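 active = at least 3 SD above the mean of all compounds, about 16000 in these data; inconclusive = too few beads counted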;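 also: 100 nL of 1 mM stock went into each well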
Mtb hypoxia rep = inhibitors of hypoxia-regulated fluorescent reporter in Mycobacterium tuberculosis. fluorescence inhibition, % (no concentration beside the values). AID 1159583. M. tuberculosis hypoxia-regulated fluorescent reporter, fluorescence. 300,000 tested, 0.1% active;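 active = 35 to 45% if threefold the growth effect, above 45% if 1.5-fold the growth effect; inactive = the rest, general growth blockers included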;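 also: wells of about 50 µL received 100 nL stock; 0% = vehicle wells and 100% = reference inhibitor wells; whole bacteria with a GFP reporter of the hypoxia response; strong numbers were not always called active; many hits fall short of the cut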
ugtP null kill = kills S. aureus RN4220 lacking UgtP; 330,000 tested, 0.54% active; growth inhibition, % (concentration not given with the values); S. aureus RN4220 ugtP deletion, OD600 growth, 16 h; some inactives read as strong as hits; AID 1259309;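 active = z-score under -3 and OD600 up to 0.15 on both plates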;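 also: plate controls were untreated wells for no effect and antibiotic for full effect; wells of about 80 µL received 100 nL stock; the first replicate is given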
RN4220 kill = S. aureus RN4220 growth inhibition | OD600, 16 h | 330,000 tested, 0.33% active | AID 1259311 | inhibition, % (test concentration not listed);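 active = z-score of -3 or lower and OD600 up to 0.18 on both plates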;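 also: plate controls were untreated cells for no effect and reference antibiotic for full effect; stock transfer was 100 nL into about 80 µL; one replicate is shown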
BJeLR lethal = BJeLR cell viability loss; BJeLR (HRASV12) viability, CellTiter-Glo ATP luminescence, 48 h; reference of the scale not given here; inhibition, % (concentration not given with the values); 300,000 tested, 0.17% active;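 active = replicate mean above 50%; inconclusive = above 50% but judged a plate artefact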;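 also: 50 nL library stock added to about 25 µL; numbers are from one replicate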
PrP 5UTR inh = suppresses PrP 5' UTR mRNA reporter expression | AID 488862 | cell-based PrP 5' UTR mRNA reporter, plate reader | 340,000 tested, 0.35% active | inhibition, % (concentration not given with the values);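 active = every replicate at 50% or more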;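 also: 0 = median of the neutral control wells; tested in H4 reporter cells; numbers are from one replicate; inactives centre near -14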
Mtb hypoxia rep growth = second read-out of Mtb hypoxia rep, no call of its own (marks repeat the call); growth inhibition, %; measured here: M. tuberculosis growth (absorbance);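 0% = vehicle and 100% = reference antibiotic; read after six days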
Active calls of the source: *; u = inconclusive; x = not tested or not shown.

The opening 2 compounds (preview)
SMILES	Autofluor counter	Mtb hypoxia rep	Mtb hypoxia rep growth	ugtP null kill	RN4220 kill	BJeLR lethal	PrP 5UTR inh
Cc1ccc(O)c(C(=O)CC(=O)c2ccccc2Cl)c1	4345	-11	10	99*	100*	-6	-21
Cc1onc(-c2ccccc2)c1CNS(=O)(=O)c1ccccc1	4396	-7	-1	0	5.7	7	-5

Main list, repeating the preview:
SMILES	Autofluor counter	Mtb hypoxia rep	Mtb hypoxia rep growth	ugtP null kill	RN4220 kill	BJeLR lethal	PrP 5UTR inh
Cc1ccc(O)c(C(=O)CC(=O)c2ccccc2Cl)c1	4345	-11	10	99*	100*	-6	-21
Cc1onc(-c2ccccc2)c1CNS(=O)(=O)c1ccccc1	4396	-7	-1	0	5.7	7	-5
O=C(CSc1nc2[nH]ncc2c(=O)[nH]1)c1ccc(Cl)cc1	x	13	18	3	2.7	4	x
CC(=O)c1n[nH]nc1NC(=O)c1ccccc1	11197	2	-4	-3	-2.2	7	-16
COc1cccc(C(O)c2cnc(C(C)C)n2C)c1OC (stereo not given)	4194	7	1	11	2.8	x	-17
COc1ccc(CCNC(=O)C(=O)NCC2OCCN2S(=O)(=O)c2ccc3c(c2)OCCO3)cc1OC (stereo not given)	5339	5	8	1	1.9	-1	-19
CCOC(=O)c1ccc(CNC(=O)C2CCC(=O)N(CCc3ccccc3)C2)o1 (stereo not given)	5633	-7	1	-3	-3.4	2	-6
COc1cc(/C=C/C(=O)O)cc(S(=O)(=O)Nc2ccc3cn[nH]c3c2)c1OC	3770	-3	8	1	0.5	x	15
CCOC(=O)c1ccccc1NC(=O)c1cccc([N+](=O)[O-])c1	4632	5	9	3	2.4	-1	4
COCCCn1c(=S)[nH]c2sc3c(c2c1=O)CCCC3	5548	x	x	x	x	-10	-8
Cc1ccc(S(=O)(=O)NNC(=O)C2CCCCC2)cc1	3857	-1	10	2	2.2	-3	4
Cc1ccc(C(=O)NNC(=O)c2ccncc2)cc1S(=O)(=O)N1CCCCC1	5572	-4	-2	10	1.6	7	-46
Cc1ccc(S(=O)(=O)N(CC(=O)N2CCC(C)CC2)c2cccc(C)c2)cc1	20718*	1	4	-4	10	-4	2
O=C1[C@@H]2[C@@H]3C[C@@H]([C@H]4ON=C(c5ccc(Cl)cc5Cl)[C@@H]34)[C@@H]2C(=O)N1C1CCCCC1	3143	6	-1	-12	1.0	5	-21
COc1ccc(CCNC(=O)CCCn2c(=O)[nH]c3cc(OC)c(OC)cc3c2=O)cc1OC	4188	6	11	-1	0.6	-3	-16
COc1ccc(Cc2noc(-c3ccccc3)n2)cc1OC	2444	8	3	2	3.3	7	-16
Cc1csc(SCC(=O)NC(=O)C2CCCCC2)n1	4839	9	9	7	4.3	-5	-20
Cc1ccc(N2N=C(c3ccc(Br)cc3)CCC2=O)cc1	2609	7	-10	-10	2.4	-10	-13
Cc1ccc(CNC(=O)CS(=O)CC(=O)O)cc1 (stereo not given)	4002	x	x	7	0.7	4	-9
CC1(C)CC(Nc2ccc(C(F)(F)F)cc2[N+](=O)[O-])CC(C)(C)N1	2365	5	6	2	-1.3	-6	-8
CCc1ccc(C(=O)NNC(=O)c2ccc(OCC(=O)N3CCOCC3)c(OC)c2)cc1	3917	-12	10	-14	-0.5	x	-13
O=C(Cc1ccc(-n2cccc2)cc1)NCc1cccs1	2427	x	x	1	1.4	-14	-7
NS(=O)(=O)c1cccc(NC(=O)COC(=O)CCC(=O)c2cccs2)c1	3007	7	1	3	4.0	x	-10
CCN(CC)c1ccc(/C=N/NC(=S)NC)c(O)c1	4475	x	x	x	x	1	-16
COC(=O)c1ccc(NC(=O)Cn2nc(C)cc2C)cc1	4048	3	5	6	-2.2	2	-20
O=C1CCc2cc(S(=O)(=O)N3CCC(C(=O)NCc4ccccc4Cl)CC3)ccc2N1	5013	x	x	4	1.6	-4	-36
CC12CC3(C)CC(C)(C1)CC(C(=O)NCCc1ccc(S(N)(=O)=O)cc1)(C2)C3	5356	0	16	3	0.7	-2	-18
O=C(NC1CCCCCCC1)c1ccc2c(c1)N(Cc1ccc(F)cc1)C(=O)CS2=O (stereo not given)	9036	4	4	-12	3.3	-4	x
Cc1ccc(S(=O)(=O)CCc2nnc(NC(=O)c3ccco3)s2)cc1	4079	4	-2	13	5.8	4	-35
COc1ccc(N(Cc2cc3cccc(C)c3[nH]c2=O)S(=O)(=O)c2ccc(OC)cc2)cc1	4694	-3	16	-4	5.0	-9	-9

Profiles from above.
Results for CC12CC3(C)CC(C)(C1)CC(C(=O)NCCc1ccc(S(N)(=O)=O)cc1)(C2)C3 → Autofluor counter = 5356; Mtb hypoxia rep = 0; Mtb hypoxia rep growth = 16; ugtP null kill = 3; RN4220 kill = 0.7; BJeLR lethal = -2; PrP 5UTR inh = -18
Results for Cc1ccc(N2N=C(c3ccc(Br)cc3)CCC2=O)cc1 → Autofluor counter = 2609; Mtb hypoxia rep = 7; Mtb hypoxia rep growth = -10; ugtP null kill = -10; RN4220 kill = 2.4; BJeLR lethal = -10; PrP 5UTR inh = -13
Results for CCN(CC)c1ccc(/C=N/NC(=S)NC)c(O)c1 → Autofluor counter = 4475; Mtb hypoxia rep = x; Mtb hypoxia rep growth = x; ugtP null kill = x; RN4220 kill = x; BJeLR lethal = 1; PrP 5UTR inh = -16

The list continues.
SMILES	Autofluor counter	Mtb hypoxia rep	Mtb hypoxia rep growth	ugtP null kill	RN4220 kill	BJeLR lethal	PrP 5UTR inh
CCc1ccc(S(=O)(=O)NCc2csc(-c3ccccc3)n2)s1	x	2	4	-9	10	-1	-9
CCn1cc(C(=O)N2CCCC(N3CCN(c4cccc(C(F)(F)F)c4)CC3)C2)cn1 (stereo not given)	4764	0	-2	2	2.1	2	-52
O=C(O)c1ccc(Oc2c(C(F)(F)F)oc3cc(O)ccc3c2=O)cc1	4819	-1	1	-4	2.6	4	-31
CCCC=C(CCC)C(NC(=O)Cc1ccccc1)c1ccc(C(=O)OC)cc1 (stereo not given)	x	19	1	8	-4.1	x	x
COC(=O)[C@]1(Cc2ccccc2)N[C@H](CN(C)S(=O)(=O)c2ccc(C(C)(C)C)cc2)[C@@H]2C(=O)N(Cc3ccccc3)C(=O)[C@@H]21	3574	-10	7	-3	2.4	x	1
C#CCCCc1nc2ccccc2c(=O)n1N	2063	11	12	6	5.7	5	-31
C#CCn1c(S(=O)(=O)Cc2ccc(C)cc2)nc(-c2ccccc2)c1-c1ccccc1	17325*	7	6	12	-3.6	33	-21
CN(C)S(=O)(=O)N1CCC(Oc2ccc(C(=O)NCc3cnn(C)c3)cc2)CC1	4265	-1	6	8	4.1	2	-2
O=C(O)c1ccc(N/N=C/c2cccc(F)c2)cc1	2950	x	x	x	x	4	-78
O=C(CCNS(=O)(=O)c1ccccc1C(F)(F)F)NCCCN1CCOCC1	3004	7	-2	8	6.4	x	-18
CC(OC(=O)c1ccc(Cl)nc1)C(=O)NC1(C#N)CCCCC1 (stereo not given)	4096	0	1	13	6.0	-21	-10
CNS(=O)(=O)c1cccc(C(=O)OCc2cc(=O)oc3c(C)c(O)ccc23)c1	3980	-5	12	-9	3.7	5	-6
Cc1cc(C)n(-c2nc(SCC(=O)N3CCCC3)c3c4c(sc3n2)CCCC4)n1	4266	x	x	-4	4.1	0	6
COCCN(CCOC)c1nc(-c2ccc([N+](=O)[O-])cc2)nc2ccccc12	3664	6	7	9	3.4	-3	-2
O=C(COC(=O)CCS(=O)(=O)c1ccc(Cl)cc1)NC1CCCCC1	4854	x	x	0	0.1	4	-5
Cn1c(CCN2CCCC2)nc2cc(NS(=O)(=O)c3ccc(Cl)cc3)ccc21	10656	4	9	0	2.5	0	-22
COc1ccc(N2CCN(C(=O)C(=O)c3c[nH]c4ccccc34)CC2)cc1	x	-5	-9	10	1.3	0	-22
Cc1ccc(-c2nnc(SCC(=O)NC3CC3)n2N)cc1	4402	8	2	5	4.7	0	-7
CCOC(=O)c1c(S(=O)(=O)Nc2ccc(F)cc2C)c(C)n(C)c1C	6305	6	2	4	-2.7	-2	-16
O=C(NC1=C(NC2CCS(=O)(=O)C2)C(=O)c2ccccc2C1=O)c1ccccc1 (stereo not given)	4584	19	4	44	25	40	0
Cn1c(SCC(=O)NCC2CCCO2)ncc(C(=O)Nc2ccccc2)c1=O (stereo not given)	5653	5	20	3	2.1	-1	-23
COc1ccc(C(=O)COC(=O)c2nc3nccc(C)n3n2)cc1F	6489	0	3	2	1.3	x	1
O=C(Oc1cccc(C(=S)N2CCOCC2)c1)c1ccc([N+](=O)[O-])cc1[N+](=O)[O-]	4014	9	14	15	3.4	-3	-12
Clc1ccc(Cn2nc(-c3ccccc3)nc2-c2ccccc2)cc1	2102	3	0	15	-1.0	-18	-23
COc1ccc(N2CC(C(=O)NCc3cccnc3)CC2=O)cc1 (stereo not given)	3203	-6	-6	-2	7.6	-6	-12
Cc1ccc(-c2nc(C)sc2CC(=O)O)cc1	10445	-1	1	0	-2.8	-8	6
COc1ccc(-c2csc(C3=C(O)CN(CCCN4CCCC4=O)C3=N)n2)cc1OC	3696	-8	0	-6	-0.7	-14	-12
O=C(Nc1cccc(-c2ccc(F)cc2)c1)C1CCCN(Cc2cccnc2)C1 (stereo not given)	5027	x	x	x	x	12	2
O=C(Nc1ccc(N2CCCCCC2)cc1)c1ccccc1Cl	4339	3	-2	0	2.2	11	-44
Cc1ccc2cc(C#N)c(N3CCCC3)nc2c1C	4035	x	x	6	2.8	15	-12
COc1ccc(NC2CC(=O)N(c3ccc(C(=O)O)cc3)C2=O)cc1 (stereo not given)	2762	1	2	3	5.1	-4	-34
CCOC(=O)N1CCN(S(=O)(=O)c2ccc(C(=O)Nc3nnc(CC)o3)cc2)CC1	9677	-1	-2	0	10	-5	-27
CC(C)[C@H](NC(=O)c1ccco1)C(=O)Nc1ccc(OC(F)F)cc1	4793	-7	5	7	1.2	13	-18
CCOc1ccccc1C(=O)n1nc2nc(C)cc(C)c2c1N	11064	6	-1	2	0.5	14	-18
C=C1CCN([C@H](C(=O)NCc2ccco2)C(C)C)S(=O)(=O)c2ccccc21	3833	x	x	x	x	-4	-2
C=CCOc1ccc(/C=C/C(=O)N2CCCN(S(=O)(=O)c3c(C)noc3C)CC2)cc1	u	10	3	-3	1.9	x	-4
CCOc1ccc(-c2csc3ncn(-c4ccc(OC)cc4)c(=O)c23)cc1	3288	-7	-2	4	25	-1	-2
Cc1cccc(NC(=S)Nc2ccccn2)c1	4482	3	9	5	2.1	-2	-30
Cc1cccc2cc(C3CC(c4ccco4)=NN3S(C)(=O)=O)c(Cl)nc12 (stereo not given)	4818	6	-1	6	2.1	11	-3
Cc1ccc(NC(=O)CSc2ncc3ccccn23)cc1	4456	8	5	5	7.9	7	-1
O=[N+]([O-])c1cc(S(=O)(=O)N2CCCC2)ccc1NN=Cc1cccs1	x	14	4	-9	2.6	x	x
CCCCn1c(N)c(N(CC(C)C)C(=O)c2cc3ccccc3cc2OC)c(=O)[nH]c1=O	u	-14	-4	4	5.3	x	-26
Cc1ccc(OS(=O)(=O)c2ccc(N3C(=O)CCC3=O)cc2)cc1	6426	-5	-3	-1	1.3	3	-6
O=C(c1ccc(Cn2cc(Br)cn2)o1)n1cccn1	7851	-5	-7	-2	2.4	0	-15
S=C(NC1CC1)N1CCCc2ccccc21	5223	-2	2	2	0.8	-3	0
CCOC(=O)c1sc(NCCNc2nc(C)c(C(=O)OCC)s2)nc1C	x	12	1	1	4.1	-6	x
CCn1c(SCC(=O)NC2CCCCC2)nnc1C(C)NC(=O)c1ccccc1F (stereo not given)	5503	2	-1	6	0.4	0	-8
Cc1cccc(Oc2sc(C(=O)c3ccccc3)c(N)c2C#N)c1C	2919	x	x	-18	1.7	14	-12
CC(C)(C)N(Cc1ccccc1)C(=O)COC(=O)CNS(=O)(=O)c1ccc2ccccc2c1	3753	3	7	-2	2.5	x	2
Cc1ccc(C(=O)CNc2ccc(F)cc2)cc1	2457	-2	0	0	-2.8	-7	-26

The list continues.
SMILES	Autofluor counter	Mtb hypoxia rep	Mtb hypoxia rep growth	ugtP null kill	RN4220 kill	BJeLR lethal	PrP 5UTR inh
CC(C)[C@H](N)c1nnc(SC/C=C/c2ccccc2)o1	15600	10	6	5	0.4	-1	1
CCCCOC1(c2ccccc2)NC(=S)NN=C1c1ccccc1 (stereo not given)	x	-1	5	-6	1.2	-2	x
Cc1c(C)n(CC(O)CN(CCO)CCO)c2ccccc12 (stereo not given)	4776	1	4	2	-2.5	-7	-13
CC(Sc1nnc2ccccn12)C(=O)N1CCc2ccccc2C1 (stereo not given)	2727	x	x	0	-0.5	4	-36
CCOC(=O)c1cc(-c2ccc(OC)cc2)n(CCC(=O)NC2CCN(Cc3ccccc3)CC2)c1C	3182	3	9	5	1.8	0	-16
